Screening results as filed in PubChem.
Vif TR-FRET: inhibitors of Vif binding to APOBEC3G peptide, primary screen, biochemical, TR-FRET, GST-Vif 1-94, biotin-A3G peptide, dose response retest (AID 1117319); Virion infectivity factor (Human immunodeficiency virus type 1 group M subtype B (isolate …; TR-FRET GST-Vif / biotin-A3G peptide binding; higher % means a stronger effect; test concentration not given here; strong numbers were not always called active; inhibition, %; hits with a dose series show IC50 in µM; 260,000 tested, 0.57% active;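 active = above the screen mean plus three standard deviations and confirmed in dose response; inconclusive = results disagree or hit not tested in dose response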;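 note: Vif residues 1-94 fused to GST binding biotinylated APOBEC3G peptide 110-148; 0% = full assay without inhibitor and 100% = GST in place of GST-Vif; retest series ran down from 100 µM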
HNF4A DNA FP: change in binding of human HNF4A to DNA, primary screen, biochemical, fluorescence polarization, FITC-DNA | Hepatocyte nuclear factor 4-alpha (Homo sapiens), P41235 | 1 h | activity change, % at 10 µM | 360,000 tested, 0.3% active | AID 1224865, 2016; in the data active = activity change above about 30%, passing the limit was not always enough;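 note: controls were the assay level and a saturating level of protein; the project sought stronger binding though the title names inhibitors; some compounds called inactive have numbers as strong as hits; positive values seem to mean higher polarization but the record does not say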
Target sequence (P41235 whole entry, looked up): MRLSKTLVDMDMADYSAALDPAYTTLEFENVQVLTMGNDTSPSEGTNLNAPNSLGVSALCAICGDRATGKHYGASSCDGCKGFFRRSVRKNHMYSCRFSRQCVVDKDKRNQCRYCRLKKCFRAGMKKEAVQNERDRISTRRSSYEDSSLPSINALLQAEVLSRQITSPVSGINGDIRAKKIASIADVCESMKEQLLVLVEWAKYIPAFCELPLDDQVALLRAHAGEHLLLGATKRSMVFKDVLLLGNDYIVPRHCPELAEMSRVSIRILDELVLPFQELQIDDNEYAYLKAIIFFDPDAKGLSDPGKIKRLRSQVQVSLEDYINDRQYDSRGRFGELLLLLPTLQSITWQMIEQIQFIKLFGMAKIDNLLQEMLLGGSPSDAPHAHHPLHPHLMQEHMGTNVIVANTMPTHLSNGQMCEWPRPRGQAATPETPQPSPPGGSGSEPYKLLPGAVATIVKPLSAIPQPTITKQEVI
ALR inh: inhibitors of human ALR sulfhydryl oxidase, primary screen, biochemical, H2O2 detection, HRP-luminol luminescence, single point; purified ALR, DTT oxidation; inhibition, % (test concentration not listed); 290,000 tested, 3.8% active; FAD-linked sulfhydryl oxidase ALR (Homo sapiens), P55789; AID 485317, 2010;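 active = mean and each replicate at 75% or more; inconclusive = only one of the two met; inactive = neither met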;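 note: stock transfer was 7.5 nL into about 7.5 µL; 0% = neutral wells and 100% = wells with inactivated enzyme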
LANA-H2B inh: blockers of LANA interaction with H2A/H2B – biochemical, FP readout, HTS, primary screen. Protein LANA1 (Human herpesvirus 8 type P (isolate GK18)), Q9QR71. cell-free LANA-H2A/H2B peptide, fluorescence polarization. inhibition, % (test concentration not listed). 320,000 tested, 0.6% active. AID 2629, 2010; in the data active = inhibition mostly above about 10%, no sharp cut-off; inactive = mostly below about 6.7%;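 note: stock transfer was 7.5 nL into about 10 µL; 0% = median of vehicle wells and 100% = median of positive control wells; one replicate is shown; the record names a cut of 25% in any replicate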
Calb FLC: C. albicans growth inhibition with fluconazole, primary screen, CaCi-2 strain, Alamar Blue fluorescence; growth inhibition, % (concentration not given with the values); 300,000 tested, 0.57% active; C. albicans CaCi-2 (fluconazole-resistant clinical isolate) + fluconazole, 48 h;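 active = most replicates above 75%; inconclusive = exactly half above 75%; inactive = most below 75%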;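 note: all wells also contain fluconazole at 8 µg/ml as a sub-toxic cotreatment; 0% = median of DMSO wells and 100% = median of geldanamycin control wells; wells of about 8 µL received 7.5 nL stock; the first replicate is given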
Beta2AR agonist: beta2AR agonists driving receptor internalization, primary screen, cell-based, FAP fluorogen, flow cytometry. Beta-2 adrenergic receptor (Homo sapiens), P07550. Am2.2-beta2AR cells; reference of the scale not given here. response, % (no concentration beside the values). 340,000 tested, 0.43% active. AID 504454, 2011;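 active = response above a set limit, near 3 SD of response in nonfluorescent compounds, cut at about 42% in these data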;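 note: stock transfer was 100 nL into about 11 µL; a reference agonist was the positive control; negative values mostly stem from fluorescent compounds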
Target sequence (P07550 whole entry, looked up): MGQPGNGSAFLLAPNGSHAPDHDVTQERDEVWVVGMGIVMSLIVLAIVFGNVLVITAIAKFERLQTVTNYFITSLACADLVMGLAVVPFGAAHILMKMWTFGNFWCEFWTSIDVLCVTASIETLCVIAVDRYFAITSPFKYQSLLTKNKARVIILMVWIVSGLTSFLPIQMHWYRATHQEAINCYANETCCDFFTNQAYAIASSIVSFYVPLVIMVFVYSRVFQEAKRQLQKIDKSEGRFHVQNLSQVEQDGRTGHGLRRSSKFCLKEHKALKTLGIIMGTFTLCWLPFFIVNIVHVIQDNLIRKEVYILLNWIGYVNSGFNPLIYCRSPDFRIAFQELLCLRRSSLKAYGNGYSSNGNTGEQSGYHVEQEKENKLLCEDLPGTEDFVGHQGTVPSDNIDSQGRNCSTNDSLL
RanGTP-Imp inh: inhibitors of RanGTP-importin-beta interaction, primary screen, biochemical, FRET, CFP-Ran, YFP-importin-beta, homogeneous | Ran GTPase (GTP-bound) - importin-beta complex | cell-free CFP-Ran/YFP-importin-beta FRET ratio | inhibition, % (no concentration beside the values) | 300,000 tested, 1.1% active | AID 2216, 2009;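 active = most replicates above 15%; inconclusive = exactly half above 15%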;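 note: 0% = DMSO wells and 100% = Ran loaded with GDP instead of GTP; wells of about 40 µL received 100 nL stock; the first replicate is given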
An asterisk follows results filed as active; u = inconclusive; x = not tested or not shown.

nr	SMILES	LANA-H2B inh	HNF4A DNA FP	RanGTP-Imp inh	Calb FLC	ALR inh	Beta2AR agonist	Vif TR-FRET
1	Cc1ccc(S(=O)(=O)Oc2ccccc2/C=C2\SC(=O)NC2=O)cc1	3.0	0.5	-0.6	55	-1	4	11%
2	CCC1CSC(Nc2ccc(C(=O)/C=C/c3cccc(C)c3)cc2)=N1 (stereo not given)	-1.8	-0.6	-1.9	26	-32	0	x
3	O=C1c2ccccc2CN1CCSC(=S)N1CCSCC1	4.2	x	5.4	1	-6	x	2%
4	COc1cccc(CNC(=O)CCNC(=O)c2ccc(Br)o2)c1	-1.3	6.5	-1.1	3	x	1	x
5	CCCSc1nnc(NC(=O)Cc2ccc(OC)c(OC)c2)s1	3.4	-2.4	-2.4	-5	-11	1	-1%
6	O=C(O)c1ccc(CS(=O)c2cccc(C(F)(F)F)c2)o1 (stereo not given)	119*	-1.4	-1.7	37	4	-9	2%
7	COc1ccc(NC(=S)Nc2cccc3cnccc23)cc1	0.3	0.4	1.5	u	37	7	1%
8	CCc1cc(=O)n2[nH]c(C)c(-c3ccccc3OC)c2n1	2.8	-0.8	-1.2	-9	-1	7	4.4µM*
9	CC(=O)Nc1ccc(N(C(=O)Cc2c[nH]c3ccccc23)C(C(=O)NC2CCCCC2)c2ccco2)cc1 (stereo not given)	-5.5	2.3	1.1	38	-9	-1	x
10	O=C(O)c1ccccc1C(=O)NNc1ccc(F)cc1F	1.5	0.7	0.1	-43	14	-4	8%
11	Cc1ccccc1C(=O)OC1OC(=O)C(Cl)=C1N1CCOCC1 (stereo not given)	1.5	1.2	-0.2	-21	9	-6	x
12	Cn1c(=O)c2cc(S(=O)(=O)NC(C(=O)NCc3ccccn3)c3ccccc3)ccc2n(C)c1=O (stereo not given)	1.5	1.1	1.0	10	-26	-2	3%
13	COc1ccc(CN2C(=O)CN(C3CCCCCC3)C(=O)C2c2ccc(OC)c(OC)c2)cc1 (stereo not given)	x	-0.5	u	-3	x	-5	-4%
14	Cc1ccc2c(c1)CCCN2C(=O)c1cc2ccccc2oc1=O	1.8	-1.1	-2.6	-7	2	-1	11%
15	Cc1ccc(C)c(OCC(=O)Nc2ccc(S(=O)(=O)Nc3ccccn3)cc2)c1	-7.4	-1.2	3.0	0	1	1	x
16	COc1ccccc1NC(=O)Cn1cnc2sc(C(=O)Nc3cc(OC)c(OC)c(OC)c3)c(C)c2c1=O	4.8	-0.3	0.1	1	-4	-13	x
17	O=C(c1ccc(Cl)c(Cl)c1)N(Cc1ccco1)c1ccc(O)cc1	1.3	-3.0	-2.8	-1	11	0	8%
18	Cc1cccc(C(=O)NCCc2ccccc2)c1	0.2	-0.9	-1.2	-3	-13	-2	7%
19	CCCNS(=O)(=O)c1ccc(OC)c(Cl)c1Cl	1.1	0.8	-4.0	7	-7	3	-6%
20	Cc1nn(C)cc1CNC(=O)c1ccccc1Br	1.0	1.3	3.8	1	-5	4	-10%
21	Cc1c(S(=O)(=O)Nc2cccc3ccccc23)c(=O)n(C)c(=O)n1C	0.7	-0.4	0.1	13	4	-4	0%
22	COc1cccc(NC(=O)CN(C)C(=O)c2ccc3c(c2)CC(c2ccccc2)OC3=O)c1 (stereo not given)	0.3	2.1	x	x	-3	-6	-6%
23	COCCn1c(C)cc(C2=NNC(=Nc3ccccc3F)SC2)c1C	-2.1	4.7	-3.7	-44	x	5	27%
24	COc1cccc(N2[C@@H](CC(C)=O)c3cc(C(F)(F)F)ccc3S2(=O)=O)c1	-6.3	-2.5	0.5	5	17	-9	x
25	O=C1/C(=C\c2ccc(O)c(O)c2)C(c2ccccc2)=NN1c1ccccc1	x	-11	6.7	-17	x	10	u
26	COc1ccccc1C1C(C(=O)c2ccc(C)o2)=C(O)C(=O)N1c1cc(C)on1 (stereo not given)	-0.7	4.1	-0.2	-2	10	7	x
27	CC(=O)OC1CCC2(C)C(COc3ccc4ccc(=O)oc4c3)C(C)(O)CCC2C1(C)C (stereo not given)	8.5	-3.6	-1.6	29	-5	2	u
28	CCn1c(C)c2c(C)nnc(C)c2c1C	-0.8	-0.6	3.6	-2	-26	2	u
29	O=C(Nc1ccccc1)c1ccn[nH]1	19	1.1	1.0	-2	-2	1	-5%
30	COc1ccc(CNC(=O)c2ccccc2SCC(=O)N2CCCC2)cc1OC	2.3	1.4	2.4	4	-6	-10	-4%
31	Clc1ccccn1	6.3	0.0	x	x	4	1	x
32	CCC(c1nnnn1CCOC)N1CCN(Cc2ccccc2OC)CC1 (stereo not given)	-3.6	-2.1	-1.6	-6	0	3	u
33	CC(C)(C)C(=O)NC1CC2CCCC(C1)N2C(=O)Nc1ccccc1 (stereo not given)	1.0	5.6	-3.1	2	-5	-1	0%
34	COc1ccc(NS(=O)(=O)c2ccc3oc(=O)c4[nH]c(=O)c(=O)n(C)c4c3c2)cc1	-1.4	1.9	-1.7	-7	4	8	x
35	Cc1cc(C)nc(-n2nc(C)cc2NC(=O)CN2CCCC(C)C2)n1 (stereo not given)	-0.1	-6.1	1.8	-4	0	4	4%
36	O=C(OCC(=O)N1CCOCC1)c1ccc2[nH]c3c(c2c1)CCCC3	-1.0	-1.0	u	-16	-14	-3	0%
37	N#Cc1c(Cl)c(Cl)c2nnc(-c3ccc(Br)cc3)n2c1Cl	-5.0	x	4.1	-9	37	x	6%
38	CC(C)CC(=O)NC(=S)N(Cc1ccccc1)Cc1ccccc1	-2.4	-0.2	u	0	3	3	1%
39	CSCCC(=O)N1CCCC(N(C)CCc2ccccc2)C1 (stereo not given)	1.9	2.2	0.1	4	x	5	x
40	COc1ccc(/C=C(\NC(=O)c2ccc(Cl)cc2)C(=O)NCCCN2CCOCC2)cc1OC	1.4	-2.7	5.5	14	-13	-1	-4%
41	Cc1ccc(CNC(=O)C2CCN(S(=O)(=O)c3ccc4nc5c(c(C(=O)O)c4c3)CC(C)CC5)CC2)cc1 (stereo not given)	3.1	3.6	7.2	5	-4	-1	3%
42	CCOC(=O)Cc1c(C)nc2c(-c3ccccc3)c(C)nn2c1C	-3.1	1.5	-0.9	7	8	3	4%
43	CCOCCCNC(=O)CCCC1=NS(=O)(=O)c2ccccc2N1	x	-3.7	0.8	u	x	6	24%
44	CCCCCC(=O)Nc1cc(S(=O)(=O)N2CCOCC2)ccc1N1CCN(C)CC1	-3.0	1.2	-0.1	-6	-3	3	x
45	CC(=O)Nc1ccc(NC(=O)c2cc(-c3cc(C)cc(C)c3O)n[nH]2)cc1	0.3	0.4	7.4	-1	37	5	0%
46	O=C(/C=C/c1ccc(F)cc1)c1ccccc1Br	-1.3	-2.9	u	-16	x	13	x
47	CCc1ccc(OCC(=O)NC2CC(C)(C)NC(C)(C)C2)cc1	4.8	1.0	-2.5	-13	-1	1	2%
48	Cc1ccc(NC(=S)NNS(=O)(=O)c2ccc3ccccc3c2)cc1Cl	-5.8	-1.9	-0.4	0	70	4	x
49	COc1ccc(N2CC(O)=C(c3nc(-c4ccc(F)cc4)cs3)C2=N)cc1OC	-1.6	-0.7	-0.1	4	-4	5	-4%
50	O=C(OCCOc1cccc(Cl)c1)c1ccc2ncsc2c1	-0.2	-1.0	-1.4	5	-5	-1	x

Pulled by structure from above (3):
nr	SMILES	LANA-H2B inh	HNF4A DNA FP	RanGTP-Imp inh	Calb FLC	ALR inh	Beta2AR agonist	Vif TR-FRET
27	CC(=O)OC1CCC2(C)C(COc3ccc4ccc(=O)oc4c3)C(C)(O)CCC2C1(C)C (stereo not given)	8.5	-3.6	-1.6	29	-5	2	u
31	Clc1ccccn1	6.3	0.0	x	x	4	1	x
48	Cc1ccc(NC(=S)NNS(=O)(=O)c2ccc3ccccc3c2)cc1Cl	-5.8	-1.9	-0.4	0	70	4	x

Later entries.
nr	SMILES	LANA-H2B inh	HNF4A DNA FP	RanGTP-Imp inh	Calb FLC	ALR inh	Beta2AR agonist	Vif TR-FRET
51	CCc1nc(OCc2ccccc2)c2sc3nc4c(cc3c2n1)COC(C)(C)C4	x	0.3	0.5	32	x	6	1%
52	CC(C)(C)C(=O)Cn1nnc(-c2ccc(C(F)(F)F)cc2)n1	-4.1	1.1	1.9	21	-8	-3	x
53	CCn1ncc(C2=NOC(C(=O)Nc3c(C)nn(Cc4ccc(F)cc4)c3C)C2)c1C (stereo not given)	-5.7	3.1	u	-1	-11	-7	3%
54	CCOC(=O)C1CCCN(C(=O)c2ccc(OC)c([N+](=O)[O-])c2)C1 (stereo not given)	-3.1	-1.8	3.2	0	-1	0	0%
55	O=C(OC1CCOC1=O)c1cc(-c2cccs2)nc2ccccc12 (stereo not given)	3.5	6.7	0.7	-11	2	-1	-12%
56	COCCNC(=O)Cn1c(=O)oc2cc(S(=O)(=O)N3CC(C)CC(C)C3)ccc21 (stereo not given)	-0.2	0.1	11	22	7	9	x
57	NC(=O)Nc1ccc(Nc2ccccc2)cc1	0.0	7.3	-0.8	-2	99*	11	24%
58	Cc1ccc2sc(NNC(=O)c3cc(=O)c4ccccc4o3)nc2c1C	-2.1	13	-4.2	-9	99*	12	x
59	CC1CCN(C(=S)c2ccccc2O)CC1	6.5	-0.7	-0.7	2	0	-2	2%
60	O=C1CCC/C(=N/NC(=O)c2ccc(CN3c4cccc5cccc(c45)S3(=O)=O)cc2)C1	-1.2	1.7	3.9	-23	9	0	x
61	Oc1ccccc1C1=Nc2nc3ccccc3n2C(c2ccccc2)C1 (stereo not given)	-1.3	-0.2	-3.8	1	x	-18	-2%
62	Cc1ccc2nc(-c3ccc(NC(=O)CN(C)S(=O)(=O)c4ccccc4)cc3)sc2c1	-2.9	x	-1.9	2	-4	x	-8%
63	COC(=O)c1ccc(NC(=O)c2ccc(F)cc2)o1	1.6	-0.5	-0.4	-2	27	-7	3%
64	COc1ccc(NC(=O)CSc2nc(-c3ccc(C)cc3)cc(C(F)(F)F)c2C#N)cc1	-1.1	2.2	4.1	6	-15	2	-13%
65	COC(=O)c1cc(NS(=O)(=O)c2ccc(N3CCOCC3)c([N+](=O)[O-])c2)cc(C(=O)OC)c1	0.1	0.1	5.0	3	x	-21	x
